Six1-Eya2 inh = blocks human Six1 binding to Eya2; AlphaScreen GST-Six1/His-Eya2 binding, biochemical; hits give low values; control for the full effect not named in the record; activity change, % (test concentration not listed); actives 0.56% (n = 360,000); in the data active = activity change below about -65%; inconclusive = about -30% to -65%; inactive = above about -30%; also: % is scaled to controls: 0 for no effect and ±100 for the full control effect; compound concentration not given in the record
Target sequence (O00167 whole entry, looked up): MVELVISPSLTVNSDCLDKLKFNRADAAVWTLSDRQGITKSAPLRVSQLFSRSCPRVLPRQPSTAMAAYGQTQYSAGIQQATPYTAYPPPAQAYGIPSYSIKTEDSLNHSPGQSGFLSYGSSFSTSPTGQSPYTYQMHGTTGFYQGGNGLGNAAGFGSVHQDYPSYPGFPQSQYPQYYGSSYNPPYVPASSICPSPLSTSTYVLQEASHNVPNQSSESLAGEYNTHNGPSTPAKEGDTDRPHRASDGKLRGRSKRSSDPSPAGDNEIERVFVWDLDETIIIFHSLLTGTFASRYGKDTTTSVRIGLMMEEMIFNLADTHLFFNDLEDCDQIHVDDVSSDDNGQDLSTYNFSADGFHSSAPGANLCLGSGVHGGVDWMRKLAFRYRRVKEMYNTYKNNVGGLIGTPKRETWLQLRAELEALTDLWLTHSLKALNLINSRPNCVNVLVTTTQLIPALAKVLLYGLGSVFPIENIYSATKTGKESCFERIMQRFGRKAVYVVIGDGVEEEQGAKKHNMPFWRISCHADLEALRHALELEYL
Target sequence (Q15475 whole entry, looked up): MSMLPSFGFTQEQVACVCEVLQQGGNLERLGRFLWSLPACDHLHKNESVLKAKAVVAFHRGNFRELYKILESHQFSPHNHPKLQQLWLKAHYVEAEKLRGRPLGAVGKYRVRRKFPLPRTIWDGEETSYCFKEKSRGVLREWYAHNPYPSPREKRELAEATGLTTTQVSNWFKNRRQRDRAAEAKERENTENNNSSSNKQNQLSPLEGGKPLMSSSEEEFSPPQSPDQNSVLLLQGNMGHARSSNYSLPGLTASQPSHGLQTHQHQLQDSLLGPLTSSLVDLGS
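AlphaScreen luminescence read after one hour at 37 °C in darkness. Pin-transferred compounds met GST-Six1 and His-Eya2 protein (5X stock 250 nM/500 nM) plus glutathione donor and Ni-chelate acceptor beads (5X, 50 ug/mL).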
TRPV1 PAM = human TRPV1 potentiation. Q8NER1. potentiation, % at 8.33 µM. AID 540277. TRPV1-expressing cells, Fluo-8 calcium influx, capsaicin EC20 potentiation; host cell line not named in the record; control for the full effect not named in the record. actives 0.02% (n = 320,000); active means potentiation above 80%; inconclusive means 30% to 80%; inactive means below 30%; also: 0% is about no effect
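Fluo-8 calcium influx in TRPV1-expressing cells, kinetic read (ex 480/em 520 nm). Compound added and read 3 min for agonist activity, followed by capsaicin at EC20 final and 2 min further read for enhancement.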
CtBP-E1A blk = CtBP/E1A binding inhibition; AlphaScreen GST-E1A/His-CtBP binding, 1536-well; hits give low values; control for the full effect not named in the record; activity change, % (test concentration not listed); actives 0.49% (n = 340,000); in the data active means activity change below about -65%; inconclusive means about -30% to -65%; inactive means above about -30%; also: % is scaled to controls: 0 for no effect and ±100 for the full control effect; compound concentration not given in the record
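Steps: dispense buffer (Tris pH 8.0, NaCl 300 mM, TCEP 1 mM, BSA, Tween 20); add 5X protein mix (GST-E1A, His-CtBP, 125 nM each); pin 23 nL compound; 2 h at 37 °C, dark; add 5X beads (50 ug/mL); 1 h; read.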
TRPML1 blocker = inhibitors of human TRPML1 channel; Q9GZU1; TRPML1-inducible cells, Ca2+ dye fluorescence, FDSS; hits give low values; inhibition of EC80 agonist-evoked calcium signal; AID 624415; activity change, negative = inhibition, % (concentration not given with the values); actives 0.02% (n = 390,000); in the data active means activity change below about -50%; inconclusive means about -30% to -50%; inactive means above about -30%;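 also: stimulus is agonist 54-4 at its EC80 concentration; % is scaled to controls: 0 for no effect and ±100 for the full control effect; compound concentration not given in the record; the text of the record puts the active cut at -80%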
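Tet-induced TRPML1-DL cells loaded with Ca8 no-wash calcium dye were read kinetically on FDSS. Compound addition was followed by EC80 agonist 54-4 (4 uM final); inhibition was read over 110 s.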
D2 potentiator = positive allosteric modulators of human D2 dopamine receptor. DiscoveRx D2 beta-arrestin cells, luminescence, 90 min; 100% = 57 uM dopamine signal. potentiation, % (no concentration beside the values). actives 0.23% (n = 360,000). AID 624464; active = potentiation of 50% or more; inconclusive = 30% to 50%; inactive = 30% or less;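 also: compound concentration not given in the record; tested on top of an EC20 dose of dopamine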
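PathHunter beta-arrestin assay in DiscoveRx D2 cells. Compounds were added with an EC20 of dopamine (50 nM final) for 90 min at 37 deg C. Luminescence was read 1 h after detection reagent, with 57 uM dopamine as the EC100 control.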
TRPML1 agonist = human mucolipin-1 channel agonism. Q9GZU1. TRPML1-expressing cells, Ca2+ dye fluorescence, FDSS; host cell line not named in the record; reference of the full effect not given here. activation, % (no concentration beside the values). actives 0.12% (n = 410,000). AID 624414; in the data active = activation above about 50%; inconclusive = about 30% to 50%; inactive = below about 30%; also: 0% is about no effect; the text of the record puts the active cut at 80%
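Agonist activity was taken from a 110 s kinetic Ca2+ dye read on the FDSS after pinning compounds onto TRPML1-DL cells. The cells were seeded at 1,500/well with Tet inducer, incubated about 16 h, then dye-loaded at room temperature.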
The depositor's hits bear a star; u = inconclusive; x = no result given. Not a hit list (roughly 0.95% active in at least one column).

SMILES	Six1-Eya2 inh	TRPV1 PAM	CtBP-E1A blk	TRPML1 blocker	D2 potentiator	TRPML1 agonist
COc1ccccc1CCNC(=O)Cn1c(=O)oc2ccccc21	4	20	-3	17	-7	0.8
CCOC(=O)Cn1nnc2c(sc3nc4c(c(-c5ccc(Cl)cc5)c32)CCC4)c1=O	-4	x	2	24	-5	-0.9
O=C(NC(=S)NCc1ccccc1)c1cccnc1	10	-14	3	-7	-1	-0.6
COC(=O)C1C(=O)c2c(n[nH]c2C)CC1(C)C (centres undefined)	5	-6	-4	-4	-5	-0.1
c1ccc(CSc2ccc(-c3ccco3)nn2)cc1	-15	-14	1	-8	-5	-0.3
O=C(NNC(=O)c1cnccc1C(F)(F)F)c1ccccc1	7	26	10	-10	-3	0.0
O=C1[C@@H]2C(c3cccnc3)=NO[C@@H]2C(=O)N1c1ccc(Br)cc1	4	x	1	u	-3	-0.4
CCn1c(SCC(=O)OC)nnc1-c1c[nH]c2ccccc12	8	-5	5	-2	2	-0.3
COc1ccc(C(=O)Nc2ccc3ccccc3c2)cc1OC	-16	6	-16	13	-9	0.0
O=C(NNS(=O)(=O)c1ccccc1F)c1sccc1-n1cccc1	1	-5	-23	-4	-3	1.2
CCN(CC)S(=O)(=O)c1ccc(Cl)c(NC(=O)c2ccc(C#N)cc2)c1	3	2	-1	34	-7	3.1
Cc1ccnn1CCC(=O)N1CCCC(Nc2ccc(F)c(F)c2)C1 (centres undefined)	4	0	-1	11	-23	-0.7
CSc1nc(N(C)NC(=O)c2ccc(Cl)cc2)c2ccccc2n1	1	u	-5	-3	12	-1.5
CCCCCC(=O)NC(NC(=S)NC1CCS(=O)(=O)C1)C(Cl)(Cl)Cl (centres undefined)	1	8	-7	54	-5	0.5
O=C(Nc1nnc(SCC(=O)N2CCOCC2)s1)C1CC(=O)N(c2ccccc2)C1 (centres undefined)	-8	-6	-21	-17	-5	-0.3

Quoted at random: 2 records from the list.
SMILES	Six1-Eya2 inh	TRPV1 PAM	CtBP-E1A blk	TRPML1 blocker	D2 potentiator	TRPML1 agonist
O=C(NNC(=O)c1cnccc1C(F)(F)F)c1ccccc1	7	26	10	-10	-3	0.0
O=C(Nc1nnc(SCC(=O)N2CCOCC2)s1)C1CC(=O)N(c2ccccc2)C1 (centres undefined)	-8	-6	-21	-17	-5	-0.3

The list continues.
SMILES	Six1-Eya2 inh	TRPV1 PAM	CtBP-E1A blk	TRPML1 blocker	D2 potentiator	TRPML1 agonist
O=C(Nc1ccc(F)c([N+](=O)[O-])c1)C1CC(=O)N(Cc2ccccc2)C1 (centres undefined)	-3	4	7	-3	-8	0.3
Cc1c(C)c2cccnc2c2ncccc12	-92*	u	-95*	-6	-8	0.4
N#Cc1nc(Cc2ccccc2)oc1NCCN1CCOCC1	4	2	11	-7	-8	0.4
CC1Cc2ccccc2N1C(=O)CN1CCCCC1 (centres undefined)	12	9	-2	-16	-8	0.2
Cc1ccc(-n2nc(C)c3c(C(=O)OCC(=O)N(C)C4CCS(=O)(=O)C4)cc(-c4ccccc4)nc32)cc1 (centres undefined)	21	6	-4	25	-13	1.4
CCOC(=O)C1=C(CN2CCSCC2)NC(=O)NC1c1cc(C)ccc1C (centres undefined)	-8	-3	6	2	-9	0.7
COc1ccc2[nH]cc(CCNC(=O)c3ccccc3Cl)c2c1	-5	4	-4	8	-1	0.7
COc1ccccc1N1CCN(C(=O)CSc2nnc(NC(=O)C3CC3)s2)CC1	0	8	1	-20	6	-0.1
COCCNC(=O)C1CCCN(C(=O)COCc2ccccc2)CC1 (centres undefined)	1	x	6	28	0	0.1
CC(C)Cn1c(SCC(=O)NCc2ccc(Cl)cc2)nnc1-c1cccc(S(=O)(=O)N2CCOCC2)c1	0	2	1	2	-22	1.8
NS(=O)(=O)c1ccc(CCNC(=O)C(=O)c2c[nH]c3ccccc23)cc1	0	18	6	-2	-5	-0.5
COc1ccc(-c2csc(C(C)(O)c3cccc(F)c3)n2)cc1 (centres undefined)	5	x	-2	-14	-10	0.8
C/C(=N\Nc1ccc(C(=O)O)cc1)c1ccc(-n2ccnc2)cc1	-2	1	1	-7	-1	-1.0
Cc1nn(C)c(C)c1/C=C(/C(=O)C(C)C)n1cncn1	13	2	x	20	-12	-0.7
NC(=O)c1cc([N+](=O)[O-])ccc1Nc1ccccc1	-4	-30	-2	-6	-2	-0.9
CCOc1ccc(OCCC(=O)N2CCN(S(=O)(=O)c3ccc(OCC)cc3)CC2)cc1	7	-12	-1	-5	7	2.3
COc1ccccc1NC(=O)CCN1C(=O)C2CC=C(Cl)CC2C1=O (centres undefined)	5	4	4	-16	-2	0.4
CCNC(=O)NC(=O)c1csc([N+](=O)[O-])c1	0	2	-2	19	7	0.4
COc1ccc(NC(=O)c2cc([N+](=O)[O-])ccc2N2CCCC2)cc1S(N)(=O)=O	-10	1	2	9	-10	0.9
O=C(CCCC(=O)N1CCCC1)N1CCCC1	3	-1	7	-9	-5	0.1
CN(C)c1cc(-c2ccccc2)nc(-c2ccccc2)n1	1	13	10	-1	-1	0.5
COc1cc(/C=N/NC(=O)Cn2cnc3c2c(=O)n(C)c(=O)n3C)ccc1O	-1	3	-14	x	-8	x
O=C1c2ccccc2C(=O)N1CC1c2ccccc2CCN1C(=O)N1CCOCC1 (centres undefined)	-2	12	7	-6	-11	-0.9
O=C(COC(=O)c1nc(Cl)ccc1Cl)NC1CCS(=O)(=O)C1 (centres undefined)	9	-9	-23	-2	-26	0.3
C[C@H](NC(=O)c1ccco1)C(=O)NCCc1ccc(S(N)(=O)=O)cc1	6	-5	-11	1	-24	0.4
O=C(O)c1ccccc1COc1ccccc1Cl	2	7	7	6	10	0.1
COC(=O)c1ccc(-n2c(C)cc(/C=N/Nc3nc(C)cc(=O)[nH]3)c2C)cc1	-9	u	-6	x	0	x
O=C(CNc1ccccc1F)N/N=C/C1CC=CCC1 (centres undefined)	8	5	5	-12	0	0.2
CCN(CC)C(C(=O)NC1CCCCC1)c1ccc(C)cc1 (centres undefined)	-2	-28	2	2	-1	0.8
NS(=O)(=O)c1ccc(CNC(=O)c2csc3c2CCCC3)cc1	-7	-7	0	7	-5	-0.4
O=C(COC(=O)c1cc(=O)[nH]c2ccccc12)NCc1cccs1	0	x	2	0	-5	0.1
C(=N\N1CCN(c2ccccn2)CC1)/c1ccco1	8	-11	-1	22	-4	-0.9
Cc1cc2c(cc1S(=O)(=O)NC1CCCCC1C)OCC(=O)N2 (centres undefined)	-16	25	4	17	-2	-0.7
CCC1Nc2ncnc(N3CCc4ccccc4C3)c2N(Cc2ccc(Cl)cc2)C1=O (centres undefined)	47	x	-15	66	-19	0.0
O=C(Nc1cccnc1)c1ccc2ccccc2c1O	-5	-18	-4	-4	7	0.7
Cc1cc(NC(=O)c2ccccc2)n(C(C)(C)C)n1	4	10	x	-2	-17	-0.2
CCOc1ccc(CCN2C(=O)C3C4CCC(O4)C3C2=O)cc1OCC (centres undefined)	2	-9	-1	0	-16	-0.1
CN(C)c1ccc(/C=N/NC(=O)C(O)(c2ccccc2)c2ccccc2)o1	-1	-9	-3	-3	-8	-0.2
COc1ccc(C(C)(C)C)cc1NC(=O)c1ccoc1C	0	x	3	-14	-16	0.4
Cc1ccc(NC(=S)NC(=O)C2CC2)c(C)c1	0	-14	3	-1	6	1.1
C=CCn1c(SCCC)nc(O)cc1=O	0	-22	4	12	3	29
Cc1cc(NS(=O)(=O)c2ccc(NC(=O)COc3ccccc3C(C)(C)C)cc2)no1	-10	2	-5	-8	7	-0.7
O=C(COC(=O)c1ccc[n+]([O-])c1)Nc1ccccc1OC(F)F	0	x	4	-3	-4	0.5
CCOC(=O)C1CCN(C(=O)c2ccc3c(Cl)c4c(nc3c2)CCCC4)CC1	-22	-3	x	13	-7	-1.2
Cn1c(N)c(C(=O)c2ccc(C#N)cc2)c(=O)n(C)c1=O	0	-6	0	-6	-21	-0.3
Cc1ccc(Cn2ccsc2=NC(=O)COC(=O)c2ccc(NC(=O)CC#N)cc2)cc1	0	-3	0	-14	11	-0.2
Nc1ccccc1C(=O)N1CCC(O)(c2ccc(Cl)cc2)CC1	1	3	5	-20	-1	0.5
COc1ccc(CCN(Cc2ccccn2)C(=S)Nc2ccccc2Cl)cc1OC	0	14	-2	29	5	3.2
COc1ccc(NS(=O)(=O)c2cc(NC(=O)c3ccc(=O)[nH]n3)ccc2N2CCOCC2)cc1	-26	-1	x	18	-1	-0.3
Cc1ccc(S(=O)(=O)Nc2cc(Br)cc3cccnc23)cc1	x	-1	x	8	x	0.3
Cc1ccc(Nc2c(-c3ccccn3)nc3cc(C)ccn23)cc1	-82*	-10	-93*	-1	-22	3.1
CC[C@@]1(C(=O)OC)N[C@H](CN(C)S(=O)(=O)c2ccc(C(C)(C)C)cc2)[C@@H]2C(=O)N(Cc3ccccc3)C(=O)[C@@H]21	3	x	3	-10	x	-0.9
COc1ccc(Nc2ncnc3sc(-c4ccccc4)cc23)cc1OC	-2	3	-2	-4	-23	0.9
COc1ccc(NC(=O)/C(Cl)=C(/Cl)S(=O)(=O)Cc2ccccc2)cn1	-12	-1	-12	19	-47	5.2
COCCCNC(=O)CCc1c(C)nc2c(c(C)nn2-c2ccc(C)cc2)c1C	-4	-25	-2	x	-1	x
CCN(CC)C(=O)Cn1cnc2sc(C(=O)N3CCN(c4ccc(F)cc4)CC3)c(C)c2c1=O	7	-1	5	-11	-3	0.8
CN1CCN(c2nc(N3CCN(CCO)CC3)nc3ccccc23)CC1	-2	-6	10	-6	-10	0.3
CC(=O)N1[C@H](C)C=C[C@]1(Cc1ccccc1)C(=O)O	2	16	2	1	-4	-0.3
COc1cc(/C=C2\SC(=Nc3ccc(O)cc3)NC2=O)cc(OC)c1OC	-11	u	-6	-7	0	1.6
COc1ccc(OCc2cn(CC(=O)c3ccc(O)cc3)nn2)cc1	1	x	-3	11	-19	-0.5
COc1cc(C(=O)N/N=C(\C)c2ccc(NC(=O)Cc3ccccc3)cc2)ccc1O	6	0	-4	14	-11	0.8
CC1CCN(S(=O)(=O)c2ccc(NC(=O)CNC3CCCCC3)cc2)CC1	1	11	-5	15	3	-0.1
Cn1nc(C(=O)NCCOc2ccccc2)c2ccccc2c1=O	6	21	1	-9	6	1.7

Entries shown so far containing an aryl thioether with sulfur outside any ring (7):
SMILES	Six1-Eya2 inh	TRPV1 PAM	CtBP-E1A blk	TRPML1 blocker	D2 potentiator	TRPML1 agonist
c1ccc(CSc2ccc(-c3ccco3)nn2)cc1	-15	-14	1	-8	-5	-0.3
CCn1c(SCC(=O)OC)nnc1-c1c[nH]c2ccccc12	8	-5	5	-2	2	-0.3
CSc1nc(N(C)NC(=O)c2ccc(Cl)cc2)c2ccccc2n1	1	u	-5	-3	12	-1.5
O=C(Nc1nnc(SCC(=O)N2CCOCC2)s1)C1CC(=O)N(c2ccccc2)C1 (centres undefined)	-8	-6	-21	-17	-5	-0.3
COc1ccccc1N1CCN(C(=O)CSc2nnc(NC(=O)C3CC3)s2)CC1	0	8	1	-20	6	-0.1
CC(C)Cn1c(SCC(=O)NCc2ccc(Cl)cc2)nnc1-c1cccc(S(=O)(=O)N2CCOCC2)c1	0	2	1	2	-22	1.8
C=CCn1c(SCCC)nc(O)cc1=O	0	-22	4	12	3	29

Screens from PubChem BioAssay.
